Bioassay records: PubChem, Broad Institute
FGF22 binding – binders of human FGF22 protein, primary screen, FGF22 synaptogenesis inhibitor project, biophysical, thermal shift, single point; recombinant FGF22 thermal shift, SYPRO orange fluorescence; percent of sucrose octasulfate shift, DMSO zero; calls only at 9.99 µM; 1.5% of 340,000 active; AID 651658, 2012;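 active = melting point raised past a set limit in the mean and every replicate; three in four hits are not shown here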
Target sequence (Q9HCT0 whole entry, looked up): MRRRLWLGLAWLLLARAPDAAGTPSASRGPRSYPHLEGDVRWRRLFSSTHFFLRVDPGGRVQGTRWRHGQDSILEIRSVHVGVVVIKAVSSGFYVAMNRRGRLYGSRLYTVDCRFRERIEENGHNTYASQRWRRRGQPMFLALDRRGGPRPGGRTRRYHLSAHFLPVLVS
Ecoli rRNA inh – reduced GFP signal of wild-type E. coli, primary screen, bacterial rRNA inhibitor project, GFP/RFP fluorescence, OD600, single point. AID 720706, 2013. 1.6% of 350,000 active. GFP signal change (wild-type ribosome), % (test concentration not listed). E. coli WT GFP vs humanized-ribosome RFP mutants, 24 h; stronger effect = lower value; DMSO median 0, no signal -100;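 active = significant combined selectivity score with lowered wild-type GFP, culture density cut under 30%, mutant RFP and density less affected; inactive = any of these conditions unmet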; also: one replicate is shown; some compounds called inactive have numbers as strong as hits
MLL AF4-AF9 inh – inhibitors of AF4 peptide binding to AF9, primary screen, biochemical, AlphaScreen, biotin-AF4 peptide, FLAG-AF9, single point. Protein AF-9 (Homo sapiens), P42568. inhibition, % at 10 µM. 0.47% of 350,000 active. AID 651704, 2012;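 active = every replicate reaching a set inhibition limit, whatever the replicate mean, cut at about 25% in these data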;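 also: 0% = plate neutral control median and 100% = total signal loss; the record names both 10 and 1 µM as test concentration; the first replicate is given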
Target sequence (P42568 whole entry, looked up): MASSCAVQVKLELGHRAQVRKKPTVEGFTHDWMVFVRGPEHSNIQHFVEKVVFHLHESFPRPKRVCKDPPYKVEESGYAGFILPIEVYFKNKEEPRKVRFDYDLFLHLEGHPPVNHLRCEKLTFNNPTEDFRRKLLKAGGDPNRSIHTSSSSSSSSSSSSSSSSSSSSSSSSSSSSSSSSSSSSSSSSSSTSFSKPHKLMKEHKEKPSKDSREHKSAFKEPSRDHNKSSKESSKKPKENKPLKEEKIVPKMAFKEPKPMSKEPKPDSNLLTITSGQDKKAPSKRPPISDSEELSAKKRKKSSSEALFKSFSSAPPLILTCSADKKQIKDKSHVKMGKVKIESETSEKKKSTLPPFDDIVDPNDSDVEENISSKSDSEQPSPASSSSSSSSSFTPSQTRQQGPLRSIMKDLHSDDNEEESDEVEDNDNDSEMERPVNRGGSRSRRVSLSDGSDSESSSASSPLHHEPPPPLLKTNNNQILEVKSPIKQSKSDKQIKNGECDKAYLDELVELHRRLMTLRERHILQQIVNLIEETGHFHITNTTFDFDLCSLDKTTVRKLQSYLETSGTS
Ecoli rRNA inh OD600 – further read-out of Ecoli rRNA inh, marked with its call; OD600 change, %; measured here: OD600 growth;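 optical density of the mix in the first replicate; 0 = DMSO median and -100 = no signal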
Ecoli rRNA inh RFP – recorded beside Ecoli rRNA inh, whose call it bears; RFP signal change, %; measured here: RFP humanized mutant strains;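 first replicate; 0 = DMSO median and -100 = no signal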
Starred values were filed as active, the others as inactive; i = inactive; + = active, no number; & = joins results of further samples. These rows are one share of the data, so the mix of outcomes need not match the whole.

SMILES	FGF22 binding	Ecoli rRNA inh	Ecoli rRNA inh OD600	Ecoli rRNA inh RFP	MLL AF4-AF9 inh
COc1ccc(NC(=O)N(C)C[C@H]2Oc3c(NC(=O)c4ccc(-c5nccs5)cc4)cccc3C(=O)N([C@H](C)CO)C[C@@H]2C)cc1	i	-2	6	-1.3	-1.3
COc1cccc(CN2[C@H](CO)[C@H](c3ccccc3)C23CN(C(=O)C2CCOCC2)C3)c1	i	3	5	0.0	0.1
CO[C@H]1CN(C)C(=O)c2cc(NS(=O)(=O)CC(F)(F)F)ccc2OC[C@H](C)N(Cc2ccccn2)C[C@@H]1C	i	-2	7	-2.3	-16
CCCNC(=O)N1C[C@@H]2[C@H](c3ccccc31)[C@@H](CO)N2C(=O)Nc1ccccc1	i	1	-4	-2.9	-1.5
CNc1ncnc2c1ncn2[C@H]1CN(Cc2ccc(-c3ccccc3)cc2)C[C@@H](CO)O1	i	0	-24	-0.7	7.4
C[C@H]1CN([C@@H](C)CO)C(=O)c2cc(NC(=O)Nc3ccc(F)cc3)ccc2O[C@H]1CN(C)Cc1ccc(-c2ccccc2)cc1	i	2	-5	3.2	3.2
C[C@H](CO)N1C[C@H](C)[C@H](CN(C)S(=O)(=O)c2ccccc2)Oc2ncc(-c3ccccc3)cc2C1=O	i	-3	-1	2.6	0.0
CCCNC(=O)N1CC2(CN(S(=O)(=O)CC)C2)c2c(n(C)c3cc(OC)ccc23)[C@H]1CO	i	-5	0	-2.1	-2.7
COCC(=O)Nc1ccc2c(c1)C(=O)N(C)[C@H]1CC[C@@H](CC(=O)NCc3ccccc3)O[C@@H]1CO2	i	4	8	-4.6	-0.2
CCCC(=O)Nc1ccc2c(c1)C(=O)N(C)C[C@@H](OC)[C@H](C)CN(C(=O)c1cnccn1)[C@@H](C)CO2	i	1	2	-2.1	1.6
O=C(Cc1ccccc1)N(c1ccccc1)c1ccccc1	i	-8	-11	-11	-2.4
CC(C)(C)OC(=O)N1CCN(Cc2ccc(F)c(B(O)O)c2)CC1	i	10	5	2.6	-0.5
COc1ccc(N2N=NN(C(C)C)C2=C(Cl)c2nnnn2-c2ccc(OC)cc2)cc1	i	1	0	1.3	2.6
CC(=O)N1[C@@H]2c3ccc(-c4ccccc4)c(=O)n3C[C@H]1[C@H](CO)[C@H]2C(=O)N1CCN(C)CC1	i	2	3	-0.9	-1.0
COCCNC(=O)C[C@@H]1C[C@H]2c3cc(NC(=O)c4cccnc4)ccc3O[C@H]2[C@H](CO)O1	i	2	-2	-1.6	-1.5
CC(C)NC(=O)N(C)C[C@H]1OCCCC[C@H](C)Oc2ccc(NS(=O)(=O)c3ccc(Cl)cc3)cc2C(=O)N([C@@H](C)CO)C[C@@H]1C	i	1	1	-1.3	0.2
C[C@H](CO)N1C[C@H](C)[C@@H](CN(C)Cc2ccccc2)Oc2ccc(NC(=O)c3ccncc3)cc2C1=O	i	1	6	-4.4	-1.1
C[C@@H]1CN([C@@H](C)CO)C(=O)c2cc(NS(=O)(=O)c3ccc(F)cc3)ccc2O[C@@H]1CN(C)S(=O)(=O)c1ccc(F)cc1	i	-3	-9	2.3	-0.8
C[C@H](CO)N1C[C@H](C)[C@@H](CN(C)S(=O)(=O)c2cccs2)OCCCC[C@H](C)Oc2ccc(NS(=O)(=O)c3cccs3)cc2C1=O	i	-8	-1	-1.1	2.1
O=C(C[C@H]1CC[C@H](NC(=O)CN2CCOCC2)[C@H](CO)O1)NCCc1ccccc1	i	3	8	-2.9	-1.1
COc1ccccc1NC(=O)N[C@H]1CC[C@@H](CC(=O)N[C@H](C)c2ccccc2)O[C@H]1CO	i	2	-3	-1.4	-0.8
COCC(=O)N(C)C[C@H]1Oc2cc(C#CCC(C)C)ccc2S(=O)(=O)N([C@H](C)CO)C[C@@H]1C	i	-3	5	-0.3	4.1
CO[C@@H]1CN(C)C(=O)c2ccc(NS(=O)(=O)c3cccc(F)c3)cc2OC[C@H](C)N(Cc2cc(F)ccc2F)C[C@H]1C	i	-5	-12	6.0	1.4
COCC(=O)Nc1ccc2c(c1)[C@H]1C[C@@H](CC(=O)NC3CCCCC3)O[C@@H](CO)[C@H]1O2	i	1	-5	-1.8	0.5
CCOC(=O)N(C)C[C@@H]1OCc2cn(nn2)CCCC(=O)N([C@H](C)CO)C[C@H]1C	i	1&19	3&3	-2.3&0.6	0.9&-1.5
N#C[C@H]1[C@@H](c2ccc(C3=CCCCC3)cc2)[C@@H](CO)N1S(=O)(=O)c1ccccc1	+	-1	-41	-2.0	3.4
Cc1ccc(S(=O)(=O)N[C@@H]2CC[C@H](CCn3cc(-c4cccc(F)c4)nn3)O[C@H]2CO)cc1	i	-6	-11	2.1	0.5
CO[C@H]1CN(C)C(=O)c2ccc(NC(=O)NC(C)C)cc2OC[C@H](C)N(CCC(F)(F)F)C[C@@H]1C	i	-4	-10	0.6	1.0
CN(C)C(=O)[C@H]1[C@H](CO)[C@H]2Cn3c(ccc(C4=CCCC4)c3=O)[C@@H]1N2C	i	4	2	-2.7	-0.2
COC(=O)[C@]12CCCCC=C1N(Cc1cccc3ccccc13)C(=O)[C@H](CC(=O)NCc1cccs1)C2	i	-8	13	1.7	1.0
CN1CCCCN2[C@H](CO)[C@H](c3ccc(C#Cc4ccccc4F)cc3)[C@@H]2C1	i	0	15	2.4	5.1
COC(=O)[C@]12CCCCC=C1N(Cc1ccco1)C(=O)[C@H](CC(=O)NCCCN1CCCC1=O)C2	i	21	22	3.5	-2.5
O=C(Nc1ccc2c(c1)[C@@H]1C[C@@H](CC(=O)N3CCOCC3)O[C@@H](CO)[C@@H]1O2)NC1CCCC1	i	7&7	9&3	13&-1.0	0.2&-0.2
C[C@H]1CCCCO[C@H](CN(C)Cc2ccc3c(c2)OCO3)[C@@H](C)CN([C@@H](C)CO)C(=O)c2cc(NC(=O)c3ccncc3)ccc2O1	i	1	3	-0.8	0.9
O=C(NCc1ccc(Cl)c(Cl)c1)c1cc(C2CCCCN2C(=O)CCc2ccccc2)on1 (centres undefined)	i	5	2	0.4	5.3
C[C@H]1CN([C@@H](C)CO)C(=O)c2cc(NC(=O)c3ccncc3)ccc2O[C@H]1CN(C)Cc1ccc(C(F)(F)F)cc1	i	-2	-9	0.8	-1.2
Cc1ccc(S(=O)(=O)Nc2ccc3c(c2)C(=O)N([C@@H](C)CO)C[C@H](C)[C@H](CN(C)C(=O)Nc2ccccc2)O3)cc1	i	-1	3	3.7	-1.1
Cc1ccc(S(=O)(=O)Nc2ccc3c(c2)C(=O)N([C@H](C)CO)C[C@@H](C)[C@H](CN(C)CC2CCCCC2)OCCCC[C@@H](C)O3)cc1	i	6	3	4.0	14
Cc1ccc(NC(=O)CN(C)C(=O)COC(=O)COc2cc(C)cc(C)c2)cc1	i	10	7	4.5	-17
Cc1cccc(S(=O)(=O)N2C[C@H](O)COC[C@H]3O[C@@H](CC(=O)N4CCN(C)CC4)CC[C@@H]32)c1	i	0	-8	-1.1	-20
O=C(NC(=S)Nc1cc(Cl)ccc1Cl)c1ccco1	i	2	4	-1.2	-3.5
CCc1nc2c(OCC3CCCCC3)cccn2c1N(C)C(=O)c1ccccc1F	i	-26	-58	15	-1.2
CCCC#Cc1ccc2c(c1)O[C@H](CN(C)CCC)[C@H](C)CN([C@@H](C)CO)S2(=O)=O	i	1	5	-1.1	0.1
C[C@@H]1CCCCO[C@@H](CN(C)C(=O)CCC(F)(F)F)[C@@H](C)CN([C@H](C)CO)C(=O)c2cc(NS(C)(=O)=O)ccc2O1	i	2	10	-0.6	-3.6
CC(=O)N(C)C[C@H]1Oc2cc(C#Cc3ccccc3F)ccc2S(=O)(=O)N([C@H](C)CO)C[C@@H]1C	i	-8	-26	4.8	-2.8
CCc1nc2ccc(C(=O)Nc3cccc(OCC(=O)N(C)C)c3)cn2c1N(CC)CCOC	i	4	6	-1.7	-4.4
O=[N+]([O-])c1cccc(COc2ccccc2CN2CCCCC2)c1	i	11	6	2.1	-0.4
C[C@H](NC(=O)C[C@H]1C=C[C@H](NS(=O)(=O)c2cccc(F)c2)[C@H](CO)O1)c1ccccc1	i	-2	9	-1.1	-16
COc1ccc(S(=O)(=O)N(C)C[C@H]2Oc3c(NC(=O)C4CCCCC4)cccc3C(=O)N([C@H](C)CO)C[C@H]2C)cc1	i	-2	-9	1.5	0.2
CC1C(=O)N(Cc2cn(CC3CCCCC3)nn2)CCS(=O)(=O)N1Cc1ccc(-c2cccc(N(C)C)c2)cc1 (centres undefined)	i	-3	-1	-0.8	0.6
COc1cccc(C(=O)N2C[C@H]3[C@@H](c4ccccc42)[C@@H](CO)N3Cc2cccnc2)c1	i	3	0	2.6	-0.1
CC(C)NC(=O)N(C)C[C@H]1Oc2ccc(NS(C)(=O)=O)cc2CC(=O)N([C@@H](C)CO)C[C@@H]1C	i	8	18	-1.2	0.5
O=S(=O)(N[C@@H]1CC[C@@H](CCn2cc(C3CC3)nn2)O[C@H]1CO)c1ccc(F)cc1	i	1	6	-2.4	-3.3
C[C@H](CO)N1C[C@H](C)[C@H](CN(C)S(=O)(=O)c2ccc(F)cc2)OCCCC[C@H](C)Oc2ccc(NC(=O)c3ccccc3)cc2C1=O	i	0	-5	1.8	1.2
Cc1ccc(S(=O)(=O)Nc2ccc3c(c2)C(=O)N([C@H](C)CO)C[C@@H](C)[C@@H](CN(C)C(=O)NC(C)C)OCCCC[C@H](C)O3)cc1	i	-1	0	-0.8	0.1
O=C(C[C@H]1C=C[C@@H](NS(=O)(=O)c2ccc(F)cc2)[C@H](CO)O1)N1CCC(Cc2ccccc2)CC1	i	-1	-16	35	-7.2
CC(=O)NC(=Cc1ccccc1)C(=O)N1CCCC1C(=O)O (centres undefined)	i	8	18	-4.0	-0.6
COc1ccc(NC(=O)N(C)C[C@H]2Oc3ccc(NC(=O)CCN4CCOCC4)cc3CC(=O)N([C@@H](C)CO)C[C@H]2C)cc1	i	4	1	0.4	-1.0
CCCNC(=O)C[C@H]1C[C@@H]2c3cc(NC(=O)COC)ccc3O[C@@H]2[C@@H](CO)O1	i	4	9	1.5	0.0
O=C(c1ccncc1)N1CCCCN2[C@H](CO)[C@@H](c3ccc(-c4ccccc4)cc3)[C@H]2C1	i	3	6	-2.8	0.8

More structures.
SMILES	FGF22 binding	Ecoli rRNA inh	Ecoli rRNA inh OD600	Ecoli rRNA inh RFP	MLL AF4-AF9 inh
C[C@H]1CN([C@@H](C)CO)C(=O)c2cccc(NC(=O)c3ccc(-c4nccs4)cc3)c2O[C@H]1CN(C)C	i	-1	0	-1.5	-1.1
CC(O)(c1cccc(F)c1)c1nc(-c2cccc(F)c2)cs1 (centres undefined)	i	-56	-77	-17	-5.1
CCC(=O)N(C)C[C@H]1Oc2ncc(C#C[C@H](C)O)cc2C(=O)N([C@@H](C)CO)C[C@H]1C	i	2	2	-1.8	-4.1
O=C1Nc2ccccc2-n2nnnc2C1N1CCN(C(=O)C2CCCO2)CC1 (centres undefined)	i	14	10	1.5	-2.6
CN(C)CCNc1ncnc2c1ncn2[C@H]1CN(Cc2ccc(F)cc2)C[C@@H](CO)O1	i	12	13	4.2	-1.3
CC=Cc1ccc2n(c1=O)C[C@@H]1[C@@H](CO)[C@H](C(=O)N[C@H](C)c3ccccc3)[C@H]2N1Cc1cncnc1 (mixture of isomers)	i	1	10	-2.1	1.9
CCCNC(=O)N1CC2(C1)[C@H](c1ccccc1)[C@H](CO)N2C(=O)c1cccnc1	i	4	13	0.5	-0.8
Cc1cc(Br)cn2c(Cc3ccccc3C(F)(F)F)c(-c3ccccc3)nc12	i	8	4	8.9	-2.1
C[C@@H]1CN([C@H](C)CO)C(=O)c2ccccc2-c2ccccc2CO[C@@H]1CN(C)Cc1ccc(F)cc1	i	-12	-59	22	6.4

Entries of single compounds as entered above. Screens in order: FGF22 binding | Ecoli rRNA inh | Ecoli rRNA inh OD600 | Ecoli rRNA inh RFP | MLL AF4-AF9 inh
`C[C@@H]1CN([C@H](C)CO)C(=O)c2ccccc2-c2ccccc2CO[C@@H]1CN(C)Cc1ccc(F)cc1` in the list: i | -12 | -59 | 22 | 6.4
`CN(C)CCNc1ncnc2c1ncn2[C@H]1CN(Cc2ccc(F)cc2)C[C@@H](CO)O1` in the list: i | 12 | 13 | 4.2 | -1.3
`CCCNC(=O)N1CC2(C1)[C@H](c1ccccc1)[C@H](CO)N2C(=O)c1cccnc1` in the list: i | 4 | 13 | 0.5 | -0.8

In the list so far, these contain a thiophene ring, fused or not:
SMILES	FGF22 binding	Ecoli rRNA inh	Ecoli rRNA inh OD600	Ecoli rRNA inh RFP	MLL AF4-AF9 inh
C[C@H](CO)N1C[C@H](C)[C@@H](CN(C)S(=O)(=O)c2cccs2)OCCCC[C@H](C)Oc2ccc(NS(=O)(=O)c3cccs3)cc2C1=O	i	-8	-1	-1.1	2.1
COC(=O)[C@]12CCCCC=C1N(Cc1cccc3ccccc13)C(=O)[C@H](CC(=O)NCc1cccs1)C2	i	-8	13	1.7	1.0
